Yeast UUG start = modulators of yeast start codon fidelity, primary screen, whole organism, S. cerevisiae, single point, plate reader | S. cerevisiae UUG-firefly luciferase reporter, luminescence/redox ratio | activity score, % at 18.7 µM | 350,000 compounds, 0.13% hits;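 active means replicate mean at a twofold rise or more, about +100% in these data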;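 further: firefly luciferase made from a UUG start codon reports start codon fidelity; reporter light over untreated wells divided by growth signal over untreated wells; some hits fall short of that in this replicate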
Env fusion inh = inhibitors of HIV-1 Env-driven cell-cell fusion, primary screen, HeLa-JRFL effector, CEM21 target cells, luciferase | 360,000 compounds, 1.1% hits | inhibition, % at 12.3 µM | AID 651610, 2012;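 active means mean replicate inhibition score of at least 50 and every replicate individually at or above 50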;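 further: 0% = plate neutral controls and 100% = maraviroc near 300 nM; one replicate is shown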
MT1-MMP act inh = blockers of MT1-MMP proenzyme processing, primary screen, HT1080 RFP-PRO-GFP cells, GFP/RFP fluorescence; Matrix metalloproteinase-14 (Homo sapiens), P50281; GFP/RFP ratio fluorescence, overnight; percent of plate control window, DMSO zero; GFP/RFP ratio change, % at 20 µM; 360,000 compounds, 0.061% hits;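 active means GFP/RFP ratio change of at least 30% with cell ATP level not reduced by more than half and red fluorescence within 50% of control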; further: strong numbers were not always called active
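Assay system: HT1080 RFP-PRO-GFP cells | Dosing: 20 µM single dose, 1% DMSO | Incubation: Cells overnight before dosing, compound overnight, 37 °C, 5% CO2 | Evaluation: GFP/RFP fluorescence ratio | Control set: DMSO-only wells and HT1080 RFP-L50D-GFP cell wells as references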
CSC inhib = cancer stem cell viability inhibitors, primary screen, luminescence. cancer stem cell-like cells viability. inhibition, % at 7.5 µM. 300,000 compounds, 1.1% hits;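 active means mean at 75% or more and at least half the replicates too; tested in HMLE shEcad cells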;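 further: 0% = median of negative and 100% = median of positive control wells; the first replicate is given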
Rce1 inhib = yeast Rce1p protease inhibitors, primary screen, biochemical, fluorescence, cell-free homogeneous. 290,000 compounds, 0.27% hits. calls only. CAAX prenyl protease 2 (Saccharomyces cerevisiae (strain ATCC 204508 / S288c)), Q03530. yeast membranes, quenched prenylated peptide cleavage fluorescence;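 active means fall in fluorescence gain of 50% or more versus controls, with final raw signal at or below 3038400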;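 further: plate controls were neutral control wells for no effect and wells lacking membranes for full effect; tested at 10 µM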
Target sequence (Q03530 whole entry, looked up): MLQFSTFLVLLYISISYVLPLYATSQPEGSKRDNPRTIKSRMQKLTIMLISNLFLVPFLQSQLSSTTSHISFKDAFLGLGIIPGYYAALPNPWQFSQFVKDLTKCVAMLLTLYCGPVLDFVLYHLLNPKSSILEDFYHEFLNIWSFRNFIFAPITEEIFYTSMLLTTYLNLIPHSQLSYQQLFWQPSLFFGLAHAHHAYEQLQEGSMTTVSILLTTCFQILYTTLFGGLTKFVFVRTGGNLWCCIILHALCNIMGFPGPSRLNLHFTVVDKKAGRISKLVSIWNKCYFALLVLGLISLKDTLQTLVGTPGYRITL
PABP FP inh = PABP poly(A) RNA binding inhibitors, primary screen, biochemical, fluorescence polarization, uHTS; Polyadenylate-binding protein 1 (Homo sapiens), P11940; inhibition, % at 35 µM; 290,000 compounds, 1% hits;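 active means 50% or more with normal probe brightness, or confirmed in later tests; about a fifth of its hits are not listed in these tables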;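 further: calls also rest on retests at 20 µM and on dose response follow-up; controls were probe without protein and protein plus probe with vehicle; some compounds called inactive have numbers as strong as hits; many hits fall short of the cut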
eIF4H FP inh = human eIF4H binding inhibitors, primary screen, translation initiation inhibitor project, biochemical, uHTS, fluorescence polarization. Eukaryotic translation initiation factor 4H (Homo sapiens), Q15056. eIF4H fluorescence polarization binding assay. inhibition, % at 35 µM. 290,000 compounds, 0.94% hits;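 active means 50% or more with normal probe brightness, or confirmed in later tests; about a fifth of its hits are not listed in these tables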;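 further: calls also rest on retests at 20 µM and on dose response follow-up; 0% = protein and probe with vehicle and 100% = probe without protein; strong numbers were not always called active; many hits fall short of the cut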
MT1-MMP act inh RFP = further read-out of MT1-MMP act inh, marked with its call; RFP signal change, %; measured here: RFP expression control read;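 0 = vehicle wells; hits needed this value within 50% of zero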
* hit, by the source's call; i = inactive; . = no result given; & = joins results of further samples. Some of the compounds tested; the hit share may differ from the screen's.

SMILES	Yeast UUG start	Env fusion inh	MT1-MMP act inh	MT1-MMP act inh RFP	CSC inhib	Rce1 inhib	PABP FP inh	eIF4H FP inh
CC(=O)c1c(C)[nH]c(C(=O)COC(=O)COc2ccccc2)c1C	-2.9	.	-1.6	0.7	-10.3	.	.	.
COc1ccc(C(=O)N/N=C/c2ccc(OC)c(CN3CCCc4ccccc43)c2)cc1	-11.3	.	-1.2	-1.3	9.6	i	0.2	9.4
Cc1cc(C)c2c(n1)SCC(=O)N2CC(=O)Nc1ccc(C)c(C)c1	-10.1	-9.8	0.8	3.2	.	i	-1.0	-0.6
COc1cc2cc(-c3ccc(O)cc3O)nc(C)c2cc1OC	-2.9	17.4	20.3	5.5	23.3	i	-5.5	-7.7
O=C(Cn1cnc2ccccc21)Nc1cccc([N+](=O)[O-])c1	.	-9.0	2.3	-7.8	-12.6	i	-2.6	-10.5
COCCCNC(=O)C(Cc1ccccc1)NS(=O)(=O)c1ccc2c(c1)c(=O)n(C)c(=O)n2C (centres undefined)	.	-11.6	2.5	5.9	-7.3	i	-4.9	8.7
CN(C(=O)COC(=O)Cn1cnc2c1c(=O)n(C)c(=O)n2C)C1(C#N)CCCCC1	-10.5	-9.5	3.3	1.5	-0.5	.	.	.
CC(C)=CCCC(C)CN(C)CCc1ccccn1 (centres undefined)	5.7	-20.1	6.4	2.9	-7.7	i	26.6	-1.3
COc1cc(-c2cc(C(=O)Nc3c(Cl)cc(Cl)cc3Cl)c3ccccc3n2)cc(OC)c1OC	.	13.3	2.0	1.3	1.9	i	-3.0	1.0
COc1ccc(CCNC(=O)CSc2nnc(CNC(=O)c3c(F)cccc3Cl)o2)cc1OC	-8.8	0.8	-2.0	-2.8	-12.8	i	5.7	-4.6
[O-][n+]1c2ccc3nonc3c2nn1-c1ccccc1Cl	-17.1	.	6.6	0.4	12.0	i	1.2	-7.2
O=C(NCCc1ccccc1)C1CCN(S(=O)(=O)N2CCCCC2)CC1	-2.9	-3.7	-1.1	-2.2	10.8	i	-0.2	2.0
N#C/C(=C\c1ccc(O)c(O)c1)C(=O)Nc1ccccc1	-20.6	-1.3	-7.1	-10.4	35.0	.	.	.
CCOc1ccc(CCNC(=O)COC(=O)CSc2ccccc2C)cc1OCC	6.2	5.7	-0.8	-0.3	0.5	i	0.4	-1.7
Cc1nn(Cc2c(F)c(F)c(F)c(F)c2F)c(C)c1NC(=O)c1c([N+](=O)[O-])c(C)nn1C	-7.3	-23.0	-1.1	-1.9	-9.1	i	3.1	14.3
CC(C)CCCC(C)NS(=O)(=O)Cc1ccccc1 (centres undefined)	-5.7	-29.9	-1.3	-0.1	-6.6	i	2.7	12.3
COc1ccc(CC(=O)N/N=C(\C)c2cccs2)cc1OC	-5.4	-0.2	-9.7	-6.0	7.2	i	5.3	-10.8
COc1ccccc1NC=C1C(=O)OC2(CCCCC2)OC1=O	-13.2	-58.3	2.3	-2.1	12.3	i	6.5	-4.4
CCOC(=O)C1(C)CCCN(C(=O)c2cc(F)ccc2C)C1 (centres undefined)	-8.3	-8.8	3.3	1.5	.	.	.	.
COc1cccc(-c2cc(C(F)(F)F)nc(NCc3ccco3)n2)c1	-14.6	-19.7	-5.9	-4.9	22.8	i	9.5	3.6
CCc1cc2c(SCC(=O)Nc3ccc(NC(C)=O)cc3)ncnc2s1	-9.7	.	-3.0	-0.9	-2.2	.	.	.
CC1(C)Cc2nc3scc(NC(=O)c4ccccc4)c3cc2CO1	-6.8	-41.8	2.8	1.9	-9.4	i	-5.0	-6.5
Cc1nnc(SCC(=O)N(C)CC(=O)Nc2ccccc2Cl)s1	-11.9	.	-1.9	2.1	-6.8	i	.	.
COc1cc(OC)cc(C(=O)NNC(=O)C(=O)Nc2cc(OC)c(Cl)cc2OC)c1	-22.8	2.4	2.4	1.2	2.1	i	3.2	20.4
CCC(=N\NC(=O)COc1ccccc1OC)/C(CC)=N/NC(=O)COc1ccccc1OC	-6.9	-1.1	-1.6	-7.6	-8.7	.	.	.

3 entries from above, arranged by the value under MT1-MMP act inh RFP, descending:
canonical_smiles | Yeast UUG start | Env fusion inh | MT1-MMP act inh | MT1-MMP act inh RFP | Rce1 inhib
COc1cc(OC)cc(C(=O)NNC(=O)C(=O)Nc2cc(OC)c(Cl)cc2OC)c1 | -22.8 | 2.4 | 2.4 | 1.2 | i
COc1ccc(C(=O)N/N=C/c2ccc(OC)c(CN3CCCc4ccccc43)c2)cc1 | -11.3 | . | -1.2 | -1.3 | i
N#C/C(=C\c1ccc(O)c(O)c1)C(=O)Nc1ccccc1 | -20.6 | -1.3 | -7.1 | -10.4 | .

(continued)
SMILES	Yeast UUG start	Env fusion inh	MT1-MMP act inh	MT1-MMP act inh RFP	CSC inhib	Rce1 inhib	PABP FP inh	eIF4H FP inh
C=CCOc1ccc(CN(C)CC(=O)N(CC(C)C)c2c(N)n(CC(C)C)c(=O)[nH]c2=O)cc1	1.3	.	0.4	0.1	-15.9	i	-5.9	-24.2
Cc1ccc(C)c2[nH]c(=O)c(CN(Cc3nnnn3C3CCCCC3)CC3CCCO3)cc12 (centres undefined)	-12.3	.	-8.4	1.4	-12.7	i	9.7	1.3
O=C(O)c1cc(-c2cccnc2)nc2ccc(Br)cc12	-2.4	21.7	3.4	5.3	25.5	i	5.8	-14.6
CC(C)c1ccc(CNC(=O)C2(C)CCCN2C)cc1 (centres undefined)	3.6	24.0	-3.1	0.1	.	.	.	.
Cc1ccc(C(=O)Nc2nc3c(s2)CCCC3)o1	-56.4	-267.1	5.4	0.8	22.9	i	8.4	-1.3
Nc1nonc1-n1nnc(C(=O)N/N=C/c2ccc(OCc3ccccc3)cc2)c1CNc1ccccc1	10.3	-7.9	5.8	4.3	12.8	i	-1.4	-3.6
Cn1ncc(N=Cc2c(O)ccc3ccccc23)c1C(=O)N1CCOCC1	-7.5	.	-3.8	-0.4	-4.9	i	.	.
COc1cccc(-c2cccc3c2NC(=O)C3(C)Cc2ccccc2F)c1 (centres undefined)	-14.2	0.9	-1.5	-5.1	.	.	.	.
Cc1c(C(=O)N2CCOCC2)[nH]c2c1C(=O)CC(c1ccc(Cl)cc1)C2 (centres undefined)	18.5	.	-1.0	-1.8	-3.7	i	-1.2	-7.3
O=C(NNC(=O)C12CC3CC(CC(C3)C1)C2)c1ccco1	.	-23.7	-1.3	3.7	-2.9	i	3.9	-5.8
CCCCc1ccc(NC(=O)Nc2cnccn2)cc1	-12.5	-4.7	-3.2	-6.1	46.2	i	-2.2	-4.3
Cc1ccc2c(Cl)cc(Cl)c(OCC(=O)OCC(=O)Nc3ccc(C#N)cc3)c2n1	-2.9	-0.7	4.5	8.7	-8.1	i	-7.6	-3.9
O=[N+]([O-])c1ccc(N2CCN(CCOc3nonc3-c3ccccc3)CC2)c(Cl)c1	-2.1	.	-4.8	-15.2	7.8	i	-2.7	-6.5
COc1ccc(C(=O)N/C(=C\c2ccc3c(c2)OCO3)C(=O)NCCc2nc3ccccc3[nH]2)cc1	.	-9.3	1.5	0.3	-14.3	i	15.6	-0.4
O=C(Nc1ccc2nc3n(c(=O)c2c1)CCCCC3)c1ccccn1	2.7	-34.0	1.8	7.0	16.7	i	-13.1	-3.3
CCOC(=O)Nc1ccc2c(COC(=O)C(NS(=O)(=O)c3ccc(Cl)cc3)C(C)O)cc(=O)oc2c1 (centres undefined)	-11.7	-18.3	-0.7	-8.7	10.0	.	.	.
COc1ccc(NC(=O)NCCC2=CCCCC2)cc1	.	-9.4	-0.7	2.1	13.9	i	3.2	-9.0
CC1Sc2ccc(S(=O)(=O)CCC(=O)N(C)Cc3ccccc3)cc2NC1=O (centres undefined)	-5.4	2.9	-1.5	-4.3	5.1	i	5.1	0.6
CC(C)=NNC(=O)C1=NNC(=O)C1	-7.4	3.7	0.9	-0.7	-5.6	i	8.8	-5.7
COc1ccc(C(=O)c2c3ccccc3[n+]([O-])n2CCCN)cc1	-17.5&-1.4	-1.4	3.4&3.8	7.3&5.8	-4.8	i	.	.
CC(=O)c1ccc(OCCCC(=O)OCC(=O)Nc2c(C)nn(-c3ccccc3)c2C)cc1	10.8	.	1.3	2.7	-22.6	.	.	.
Cc1ccccc1OCC(=O)O/N=C(\N)c1ccncc1	-6.9	-353.3	2.3	1.3	-3.3	i	14.9	2.1
CCC(Sc1nc2ncccc2[nH]1)C(=O)NC1CCC(C)CC1 (centres undefined)	-2.3	3.2	-4.4	-5.7	3.2	i	-7.1	7.1
CCOc1ccc(/C=N/NC(=O)Cc2cccs2)cc1	-10.2	-14.1	1.1	3.5	-5.0	i	-1.8	0.5
CCCCCCc1cc2cc(S(=O)(=O)c3ccc(C)cc3)c(=O)oc2cc1O	-25.9	11.7	-5.4	-9.2	89.1*	i	-1.9	11.4
(list continues)
SMILES	Yeast UUG start	Env fusion inh	MT1-MMP act inh	MT1-MMP act inh RFP	CSC inhib	Rce1 inhib	PABP FP inh	eIF4H FP inh
CCc1ccc(OCC(=O)NCCN(C)C)c(Br)c1	1.2	.	3.8	6.3	-2.4	i	-0.1	-2.4
O=[N+]([O-])c1ccc2[nH]c(O)c(N=NC(=S)Nc3cccnc3)c2c1	.	-5.6	16.0	-0.2	0.9	i	13.0	40.4
CCOCCCN1CN(Cc2ccccc2)CNC1=S	-20.8	-44.8	-0.7	4.7	11.6	i	-3.2	-4.5
O=C(Cc1cn2ccsc2n1)NCCc1ccc(F)cc1	-6.5	.	-6.3	-2.3	-8.6	i	10.3	1.4
Cc1ccc2nc(-c3cccc(N)c3)oc2c1	.	.	4.1	3.3	.	i	-4.5	-7.2
CCCn1c(N)c(N(CCOC)C(=O)c2cc3ccccc3cc2OC)c(=O)[nH]c1=O	-10.1	.	1.6	2.9	-5.1	.	.	.
CCOC(=O)c1c(C)n(CC(O)CN(C)C)c2cc(Br)c(OC)cc12 (centres undefined)	.	2.4	3.5	-2.0	-13.9	i	-0.3	-6.0
CC(C)(C)c1nnc(NC(=O)NS(=O)(=O)c2ccccc2)s1	-2.3	12.5	-6.1	-3.8	1.9	i	7.1	-6.9
Nc1c(C(=O)c2ccccc2)sc(Nc2ccccc2)c1S(=O)(=O)c1ccccc1	-15.4	-64.4	-8.3	-10.3	-2.0	i	-0.3	8.5
O=C(CCCc1ccccc1)Nc1cccc([N+](=O)[O-])c1	-11.8	-129.7	1.6	-2.8	30.3	i	8.0	3.1
COc1cc(C)ccc1S(=O)(=O)NC1CC(C)(C)NC(C)(C)C1	-24.5	9.9	-4.7	0.1	-16.0	.	1.2	-1.5
C/C(=N\NC(=O)c1ccc2c(c1)OCO2)c1cccnc1	4.9	.	-0.6	4.7	-2.0	i	0.0	2.4
CCOc1ccc2nc(-c3ccc(OC)c(OC)c3)cc(C(=O)O)c2c1	6.5	.	2.1	6.6	-17.1	i	9.2	1.4
O=C(/C(=N\Nc1ccc([N+](=O)[O-])cc1)Sc1nnnn1-c1ccccc1)c1ccccc1	.	4.3	-0.6	-12.4	42.4	i	9.7	3.9
CCc1[nH]nc(C(=O)N2CCCC(CNS(=O)(=O)c3cccs3)C2)c1C (centres undefined)	.	10.4	-4.3	-0.3	2.4	i	1.4	-3.2
CCN(CC)C(=O)CSc1nnc(-c2ccco2)n1N	-21.1	-60.5	1.8	1.0	.	i	1.8	-5.1
CC(Sc1n[nH]c(=O)n1Cc1ccccc1)C(=O)NCC1CCCO1 (centres undefined)	-16.3	-10.4	3.7	1.2	.	.	.	.
Cc1cc(C(N)=O)c2ccccc2n1	-15.1	-1.5	1.1	-0.7	-8.1	i	6.8	-1.6
CCC1=Nc2cc(C(=O)NCCCN3CCN(C)CC3)ccc2Sc2ccccc21	-6.4	5.6	-1.2	2.0	-17.7	i	-5.9	-2.8
